# RecA splice inh = Mtb RecA intein splicing inhibition; inhibition, %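 (about 9 µM by stock and volumes)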; 290,000 tested, 0.75% active; cell-free RecA intein splicing, fluorescence; P9WHJ3; AID 2221; in the data active = inhibition above about 30%;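 note: 0% = vehicle wells and 100% = reference inhibitor control wells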
# Target sequence (P9WHJ3 whole entry, looked up, canonical isoform): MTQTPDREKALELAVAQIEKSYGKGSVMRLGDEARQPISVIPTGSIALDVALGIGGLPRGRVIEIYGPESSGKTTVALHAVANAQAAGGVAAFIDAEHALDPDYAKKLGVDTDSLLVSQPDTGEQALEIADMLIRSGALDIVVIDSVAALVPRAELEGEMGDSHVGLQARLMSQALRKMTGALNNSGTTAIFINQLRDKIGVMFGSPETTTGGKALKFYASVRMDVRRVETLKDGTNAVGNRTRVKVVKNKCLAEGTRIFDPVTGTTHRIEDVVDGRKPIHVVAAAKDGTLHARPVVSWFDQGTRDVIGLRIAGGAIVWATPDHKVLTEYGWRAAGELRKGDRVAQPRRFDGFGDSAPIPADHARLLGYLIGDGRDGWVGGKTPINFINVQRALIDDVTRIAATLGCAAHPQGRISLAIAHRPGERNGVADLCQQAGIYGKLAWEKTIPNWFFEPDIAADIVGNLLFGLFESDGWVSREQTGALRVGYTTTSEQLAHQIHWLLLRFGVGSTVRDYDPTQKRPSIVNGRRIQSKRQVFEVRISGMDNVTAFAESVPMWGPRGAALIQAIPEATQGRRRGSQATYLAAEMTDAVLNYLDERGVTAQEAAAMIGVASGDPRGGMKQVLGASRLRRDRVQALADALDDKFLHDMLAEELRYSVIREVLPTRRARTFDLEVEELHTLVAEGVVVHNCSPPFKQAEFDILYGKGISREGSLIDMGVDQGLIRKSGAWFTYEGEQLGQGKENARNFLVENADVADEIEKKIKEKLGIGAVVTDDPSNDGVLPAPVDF
# Mtb bLac sens = beta-lactam sensitization of Mtb H37Rv. M. tuberculosis H37Rv growth with meropenem, percent inhibition; hits of this screen are not shown here. inhibition, % at 25 µM. 330,000 tested, 0.27% active;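 active = about 74% or more and at least 40 points above the plate without the antibiotic, then above 30% in a dose series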;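 note: growth measured after seven days incubation then overnight dye step; 0% = bacteria only wells and 100% = bacteria with antibiotic; twin plates without the antibiotic show which effects depend on it; some results filed as inactive read as strong as hits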
# * = called active by the depositor; / = no result given. Not all compounds are listed; count on the stated rates, not on these rows.
# Each structure is followed by: Mtb bLac sens	RecA splice inh
[1] COC(=O)c1ccc(O)cc1
 : /	-1.0
[2] CC(C(=O)O)c1ccc(C(=O)c2cccs2)cc1 (centres undefined)
 : 1	/
[3] CCCNC(C)C(=O)Nc1c(C)csc1C(=O)OC (centres undefined)
 : -6	/
[4] CC(=O)OCC1=C[C@@H]2OC(=O)C3=CO[C@@H](O[C@@H]4O[C@H](CO)[C@@H](O)[C@H](O)[C@H]4O)[C@H]1[C@@H]32
 : 2	/
[5] CCOC(=O)c1ccc(N)cc1
 : -2	/
[6] CC(=O)Nc1ccc(C(=O)O)cc1
 : -1	/
[7] CCCCCCO
 : -6	/
[8] CC(=O)c1ccc(S(=O)(=O)NC(=O)NC2CCCCC2)cc1
 : 2	/
[9] CN1CCN(C(c2ccccc2)c2ccccc2)CC1
 : 0	/

# Part of the list above in a different format:
nr | molecule | Mtb bLac sens | RecA splice inh
8 | CC(=O)c1ccc(S(=O)(=O)NC(=O)NC2CCCCC2)cc1 | 2 | /
9 | CN1CCN(C(c2ccccc2)c2ccccc2)CC1 | 0 | /

# Sorted by length of the SMILES (descending): part of the list above
# Each structure is followed by: Mtb bLac sens	RecA splice inh
[9] CN1CCN(C(c2ccccc2)c2ccccc2)CC1
 : 0	/
[6] CC(=O)Nc1ccc(C(=O)O)cc1
 : -1	/
[1] COC(=O)c1ccc(O)cc1
 : /	-1.0

# Source: PubChem BioAssay (several laboratories)
